Screening data: PubChem BioAssay, National Center for Advancing Translational Sciences (NCATS)
D2 potentiator = positive allosteric modulators of human D2 dopamine receptor. P14416. DiscoveRx D2 beta-arrestin cells, luminescence, 90 min; 100% = 57 uM dopamine signal. potentiation, % (test concentration not listed). 0.23% of 360,000 active; active = potentiation of 50% or more; inconclusive = 30% to 50%; inactive = 30% or less;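 note: compound concentration not given in the record; tested on top of an EC20 dose of dopamine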
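PathHunter D2 cells, attached overnight at 37 deg C, received compound in DMSO plus dopamine at EC20 (50 nM final) for 90 min at 37 deg C. Beta-arrestin recruitment was read as luminescence after 1 h with detection reagent at ambient temperature.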
PINK1 expr mod = changes PINK1 expression; PINK1 immunofluorescence, high-content cytometry, 24 h; Potency, µM (top dose mostly 76.6 µM), for the others: at the highest dose activation (PINK1 increase), actives largely listed as activators; 0.2% of 410,000 active; AID 624263; active = well fitted activation curve with a large enough effect; inconclusive = small, poorly fitted or top-dose-only effect; inactive = flat fitted curve, though single readings scatter; cell line not stated here;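 note: potency is the fitted concentration of half-maximal effect; % of control where 0% means no effect; nearly all actives have a fitted effect of over 65% in size; a mitochondrial uncoupler was the plate control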
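Compound titrations (5 concentrations, 24 h) on a stable cell line; DMSO and CCCP controls. Endpoint: fixed-cell PINK1 immunofluorescence with mitochondrial, cell and nuclear markers, scanned by microplate cytometer.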
D2 ag = human D2 receptor agonism in beta-arrestin assay; P14416; 0.084% of 360,000 active; activation, % (no concentration beside the values); DiscoveRx PathHunter D2 beta-arrestin, luminescence, 90 min; 100% = 57 uM dopamine signal; AID 624465; in the data active = activation above about 40%; inconclusive = about 15% to 40%; inactive = below about 15%; note: compound concentration not given in the record; the text of the record calls up to 30% inactive
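Agonist mode: compounds alone added to overnight-plated D2 PathHunter cells for 90 min at 37 C, with 57 uM final dopamine (EC100) defining full response. Beta-arrestin recruitment detected by chemiluminescent reagent, read after 1 h at ambient temperature.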
Six1-Eya2 blk = Six1/Eya2 interaction inhibition | activity change, % (test concentration not listed) | 0.56% of 360,000 active | AlphaScreen GST-Six1/His-Eya2 binding, biochemical; stronger effect = lower value; control for the full effect not named in the record | AID 651725 | Q15475+O00167; in the data active = activity change below about -65%; inconclusive = about -30% to -65%; inactive = above about -30%; note: % is set by controls: 0 for no effect and ±100 for the full control effect; compound concentration not given in the record
Target sequence (O00167 whole entry, looked up): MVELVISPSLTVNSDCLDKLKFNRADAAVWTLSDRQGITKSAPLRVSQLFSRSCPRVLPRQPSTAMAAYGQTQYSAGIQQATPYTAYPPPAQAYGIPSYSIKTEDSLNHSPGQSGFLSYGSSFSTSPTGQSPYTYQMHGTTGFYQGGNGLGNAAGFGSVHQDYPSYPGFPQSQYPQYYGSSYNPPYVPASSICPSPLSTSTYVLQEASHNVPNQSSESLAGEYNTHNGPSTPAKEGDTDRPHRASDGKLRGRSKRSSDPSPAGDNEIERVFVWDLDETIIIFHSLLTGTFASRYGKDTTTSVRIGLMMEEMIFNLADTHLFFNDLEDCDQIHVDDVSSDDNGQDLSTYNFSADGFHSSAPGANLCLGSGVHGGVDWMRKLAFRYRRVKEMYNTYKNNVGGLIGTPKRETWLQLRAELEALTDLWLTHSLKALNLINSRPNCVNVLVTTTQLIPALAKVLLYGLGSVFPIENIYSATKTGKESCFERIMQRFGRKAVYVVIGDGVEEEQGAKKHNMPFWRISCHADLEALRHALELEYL
Target sequence (Q15475 whole entry, looked up): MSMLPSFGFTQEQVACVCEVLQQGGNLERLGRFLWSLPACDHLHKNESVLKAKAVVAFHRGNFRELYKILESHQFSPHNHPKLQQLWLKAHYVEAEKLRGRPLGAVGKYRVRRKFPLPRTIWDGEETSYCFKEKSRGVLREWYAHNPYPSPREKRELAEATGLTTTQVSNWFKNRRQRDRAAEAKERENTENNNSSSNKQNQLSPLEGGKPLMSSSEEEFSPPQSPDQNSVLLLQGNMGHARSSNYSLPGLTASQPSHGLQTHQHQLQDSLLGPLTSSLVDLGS
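Compounds are tested against tagged Six1 and Eya2 proteins bridged by glutathione donor and nickel acceptor beads; after a one-hour incubation at 37 °C without light, AlphaScreen emission is recorded.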
CtBP-E1A blk = inhibitors of CtBP/E1A interaction. activity change, % (no concentration beside the values). 0.49% of 340,000 active. AlphaScreen GST-E1A/His-CtBP binding, 1536-well; stronger effect = lower value; control for the full effect not named in the record; in the data active means activity change below about -65%; inconclusive means about -30% to -65%; inactive means above about -30%; note: % is set by controls: 0 for no effect and ±100 for the full control effect; compound concentration not given in the record
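GST-E1A and His-tagged CtBP (125 nM each as 5X stock) were preincubated with pin-transferred compound for 2 h at 37 °C in the dark, then glutathione donor and nickel acceptor beads were added for 1 h before AlphaScreen reading.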
TRPML1 agonist = human mucolipin-1 channel agonism. AID 624414. Q9GZU1. 0.12% of 410,000 active. activation, % (test concentration not listed). TRPML1-expressing cells, Ca2+ dye fluorescence, FDSS; host cell line not named in the record; reference of the full effect not given here; in the data active = activation above about 50%; inconclusive = about 30% to 50%; inactive = below about 30%; note: 0% is about no effect; the text of the record puts the active cut at 80%
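TRPML1-DL cells, Tet-induced overnight (~16 h, 37 degrees C), loaded 45-90 min at room temperature with Ca8 no-wash calcium dye plus quencher. FDSS fluorescence: 10 s baseline, compound pin-transfer, 110 s agonist read, then EC80 54-4 (4uM final) and 110 s antagonist read.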
An asterisk follows results filed as active; ? = inconclusive; nt = no result given; [ ] = another dose, or the depositor's remark.

SMILES | D2 potentiator | PINK1 expr mod | D2 ag | Six1-Eya2 blk | CtBP-E1A blk | TRPML1 agonist
O=C(CN(Cc1ccccc1)C(=O)CNS(=O)(=O)c1ccc(F)cc1)NCC1CCCO1 (stereo not drawn) | -1 | 0.5% | 2.0 | 4 | 7 | -0.7
CCOC(=O)c1ccc(NC(=O)c2ccccc2[N+](=O)[O-])cc1 | -7 | 10% | 1.3 | 2 | 2 | 0.8
CC(=O)CCC(=O)N1CCCC(N2CCN(c3cccc(Cl)c3)CC2)C1 (stereo not drawn) | -14 | 0.7% | 5.5 | -1 | -2 | -0.2
O=C(CN1C(=O)C2C3C=CC(C3)C2C1=O)NCc1ccco1 (stereo not drawn) | -3 | -0.1% | -2.6 | -1 | 2 | 0.8
Cc1ccc(CSCC(=O)N2CCOCC2)cc1 | -3 | 2.5% | -0.6 | 1 | 4 | -0.8
COc1cc(NC(=O)COC(=O)c2ccc(C)c(S(=O)(=O)N3CCCCC3)c2)c(C)cc1[N+](=O)[O-] | -6 | -0.9% | -1.3 | -12 | -7 | 0.5
CCCc1nc2ccc(NC(C)=O)cc2c(=O)n1Cc1cccc(Cl)c1 | -2 | 0.1% | 2.7 | -12 | 0 | -0.2
NS(=O)(=O)c1ccc(CNC(=O)c2cc(=O)c3ccccc3o2)cc1 | -12 | 1.9% | -3.9 | 3 | -2 | 1.1
COc1ccc([C@H]2N[C@]3(CCCN(Cc4ccc(C(F)(F)F)cc4)C3=O)[C@H]3C(=O)N(C)C(=O)[C@@H]23)cc1 | -8 | 2.0% | -10 | 11 | 4 | 0.3
COc1ccc(C(=O)NC2CC2)cc1OC1CCN(Cc2ccc(Cl)cc2)CC1 | -47 | -0.5% | -6.5 | 3 | -15 | 2.1
CCC(C)[C@H](NC(=O)[C@@H]1CSC2c3ccccc3C(=O)N21)C(=O)NCc1ccncc1 (stereo partly drawn) | -1 | 1.7% | -0.6 | 1 | 6 | -1.2
CCN(CC)c1ccc(-c2nc3cnccn3c2NC2CCCC2)cc1 | 21 | -3.1% | 3.8 | 5 | -1 | 6.2
Nc1nonc1-n1nnc(C(=O)N/N=C/c2cccc(Cl)c2)c1CN1CCCCCC1 | -3 | 1.9% | -0.4 | 2 | 4 | -0.2
CCOc1ccc(N2C(=O)/C(=C/c3ccccc3)N=C2SC)cc1 | -13 | 7.4% | -4.1 | 7 | nt | 0.9
CC(=O)Nc1c(C)nn(-c2ccc(C)c(C)c2)c1C | 19 | -0.8% | -1.1 | 2 | 2 | 1.8
O=C(Cn1nnc(-c2cccs2)n1)N1CCOCC1 | -7 | -0.4% | -2.4 | 3 | -7 | -0.1
COCc1c(C(=O)OCC(=O)N2c3ccccc3CC2C)oc2ccccc12 (stereo not drawn) | 0 | 1.9% | 1.3 | 1 | -3 | 1.5
Cc1cc(C(=O)OCC(=O)N2c3ccccc3NC(=O)C2(C)C)c(C)n1-c1ccccc1 | -8 | 21% | 5.0 | 0 | -5 | -0.2
C=CCNc1sc(C(=O)c2cccs2)c(N)c1C#N | -13 | ? | -3.7 | -1 | -7 | 0.8
CN(CC(=O)Nc1cccc(F)c1)C(=O)CCCn1c(=O)oc2ccccc21 | -16 | -1.8% | 1.2 | 7 | -3 | 1.4

An excerpt from above, showing only TRPML1 agonist and Six1-Eya2 blk:
mol	TRPML1 agonist	Six1-Eya2 blk
O=C(CN1C(=O)C2C3C=CC(C3)C2C1=O)NCc1ccco1 (stereo not drawn)	0.8	-1
O=C(Cn1nnc(-c2cccs2)n1)N1CCOCC1	-0.1	3
COc1cc(NC(=O)COC(=O)c2ccc(C)c(S(=O)(=O)N3CCCCC3)c2)c(C)cc1[N+](=O)[O-]	0.5	-12
CCC(C)[C@H](NC(=O)[C@@H]1CSC2c3ccccc3C(=O)N21)C(=O)NCc1ccncc1 (stereo partly drawn)	-1.2	1

Further results.
SMILES | D2 potentiator | PINK1 expr mod | D2 ag | Six1-Eya2 blk | CtBP-E1A blk | TRPML1 agonist
O=C(OCc1nnc(-c2ccccc2)o1)C1CCN(C(=O)c2ccc(Cl)cc2)CC1 | -31 | 0.8% | -6.2 | 18 | 0 | 1.6
CCOC(=O)N1CCN(C(=O)c2[nH]c(C(F)(F)F)nc2-c2ccccc2)CC1 | -4 | 5.6% | -3.3 | 10 | -14 | 0.0
COc1ccc(N2CCC(CNC(=O)Nc3ccc(C)c(C)c3)C2)cc1 (stereo not drawn) | -25 | -0.1% | -31 | ? | -4 | -0.3
O=C(c1ccco1)c1coc2c1cc(O)c1ccccc12 | 6 | -1.2% | 3.7 | -1 | -2 | 2.3
CN1CCc2c(n(CC(O)CN3CCN(CCO)CC3)c3ccccc23)C1=O (stereo not drawn) | 3 | -1.1% | 5.6 | 3 | 0 | 2.9
O=c1nc(/C=C/c2cc([N+](=O)[O-])ccc2Cl)cc(C(F)(F)F)[nH]1 | -3 | -4.6% | -4.1 | -1 | 6 | -0.6
CC(C)(C)CC(=O)Nc1ccc(S(=O)(=O)N2CCCC2)cc1 | -2 | 1.2% | 0.2 | 5 | -1 | -0.1
Cc1ccc2c(C)c(C(=O)N(Cc3ccc(N(C)C)cc3)C3CCS(=O)(=O)C3)oc2c1 (stereo not drawn) | -5 | 0.5% | -1.6 | ? | ? | 0.3
O=C(Nc1ccccc1C(=O)O)c1cc(S(=O)(=O)N2CCCCCC2)ccc1Cl | 14 | 1.3% | 3.4 | 10 | -1 | 3.0
CCN(CC(=O)Nc1ccc(OC)cc1)C(=O)c1ccc2ccccc2c1 | -6 | 1.6% | -2.0 | -6 | 3 | 0.9
NCCCCCc1nnc(SCc2ccccc2Cl)o1 | -14 | -0.8% | -2.0 | -1 | 6 | -0.1
O=C(CCc1ccccc1)c1nnc(-c2ccccc2)o1 | -3 | 0.2% | -2.4 | 17 | -22 | 3.2
COC(=O)[C@]12CCCCC=C1N(Cc1ccco1)C(=O)[C@H](CC(=O)N1CCCCC1)C2 | nt | 0.5% | nt | -2 | 5 | -0.4
Cc1c(OC(C)C(=O)NCC2CCC(C(=O)O)CC2)ccc2c3c(c(=O)oc12)CCCC3 (stereo not drawn) | 2 | 0.7% | -1.8 | 4 | 2 | -1.2
CCN1CCSc2ccc(C(=O)NCc3cc(Br)ccc3OC)cc21 | -4 | -0.5% | -5.5 | -14 | -16 | 1.0
O=C1CCC([N+](=O)[O-])C(c2ccc(Br)cc2)N1 (stereo not drawn) | -25 | 0.9% | -2.9 | 7 | -6 | -0.6
COc1ccc2c(c1)C1(C)CC(C)(C)N2C(=O)N1c1ccccc1 (stereo not drawn) | -22 | 0.1% | -4.3 | -2 | 6 | 0.8
Cc1cc(NC(=O)COc2cccc([N+](=O)[O-])c2)no1 | -12 | 0.2% | -2.6 | 2 | -1 | -0.1
CCN1CCN(c2ccccc2NC(=O)C(C)Oc2ccc(C(C)=O)cc2)CC1 (stereo not drawn) | -5 | -1.0% | 1.2 | -3 | 3 | -0.9
Nc1ncnc(NNC(=O)CNC(=O)c2c(F)cccc2Cl)c1[N+](=O)[O-] | -8 | -1.5% | -2.1 | ? | ? | -0.4
COc1ccc(C(=O)OCC(=O)Nc2ccc(F)c(F)c2)cc1OC | -3 | -1.0% | -0.2 | -3 | 1 | -1.3
CC1CCC(NC(=O)Cn2c(=O)oc3cc(S(=O)(=O)N4CCCC4)ccc32)CC1 (stereo not drawn) | -1 | -0.1% | 7.8 | 2 | -26 | -0.4
O=C(O)c1cccc(N=NN2CCOCC2)c1 | 0 | 1.3% | -9.1 | -3 | 3 | 1.8
COC(=O)[C@@H](NC(=O)NC1CCCc2ccccc21)C(C)C (stereo partly drawn) | 5 | 7.5%[38.3 µM] | -4.2 | 5 | 9 | 2.9
COc1ccc(C(N)=O)c(OCC(=O)Nc2cc(C)on2)c1 | 1 | 1.3% | 0.6 | 1 | nt | -0.7
N#Cc1cccc(-c2nnc(SCc3ccccc3C#N)o2)c1 | 6 | -2.4% | -1.9 | 0 | 0 | 2.4
COc1ccc2ccccc2c1/C=N\NC(=O)c1cccnc1 | -9 | -0.1% | -3.7 | 10 | 0 | 1.5
O=C(c1cc2ccccc2o1)N1CCC(N2CCC(C(=O)N3CCCC3)CC2)CC1 | -9 | 0.0% | -0.2 | 9 | nt | -0.2
CCOc1ccc(C(=O)NC(=S)Nc2cccnc2)cc1 | -23 | -0.2% | -5.4 | 0 | 5 | -0.4
O=[N+]([O-])c1ccc2c(c1)ncn2-c1ccccc1 | -8 | 0.4% | -3.4 | 4 | 6 | 1.2
CC1CCCCC1NC(=O)Cn1nnc(-c2ccc(Cl)cc2)n1 (stereo not drawn) | -5 | nt | -0.6 | -3 | -13 | -0.4
O=C(O)c1cc(S(=O)(=O)Nc2ccc(N3CCCCC3)cc2)ccc1Cl | -2 | -1.4% | -1.6 | 1 | 5 | -0.7
Cc1cc(=O)oc2cc(OCC(=O)OCC(=O)Nc3ccc4ccccc4c3)ccc12 | -12 | -0.9% | -1.7 | -4 | -11 | -0.3
CC(CC(=O)c1ccccc1)=NCC(O)CN=C(C)CC(=O)c1ccccc1 (stereo not drawn) | -5 | 3.0% | -0.8 | -16 | 2 | 1.6
CCOC(=O)c1nn(-c2ccc3c(c2)CCN3C(C)=O)cc1O | -23 | 7.0%[38.3 µM] | -0.3 | -17 | 10 | -0.6
CC(OC(=O)c1cccs1)C(=O)NCc1ccco1 (stereo not drawn) | 3 | -0.8% | -0.3 | 0 | 2 | 0.1
COc1ccccc1NS(=O)(=O)c1cc(C(=O)N2CCCC2)ccc1F | 0 | -1.5% | 4.2 | 3 | 0 | 0.2
COC(=O)c1ccc(CNC(=O)c2ccc3oc(C(C)C)nc3c2)cc1 | -8 | 1.2% | -1.4 | -3 | -1 | -1.0
COc1ccc(OC)c(Nc2nc(-c3ccccc3O)nc3ccccc23)c1 | -10 | ? | -4.1 | -7 | -7 | -0.2
O=c1c2ccccc2c2ccccc2c(=O)n1-c1ccccc1 | -2 | 2.6% | 5.7 | 0 | 3 | 1.4
CCOC(=O)c1c(C)nc2sc(C(=O)Nc3ccccc3)c(N)c2c1-c1ccc(OC)cc1 | 12 | 7.0% | 2.3 | 22 | 28 | 0.1
Cc1ccccc1NC(=O)c1ccccn1 | -3 | 0.3% | -3.3 | 2 | 0 | nt
COc1ccc(-c2cc(C(F)(F)F)c(C#N)c(SCC(=O)Nc3ccc(C)cc3)n2)cc1 | 9 | -2.2% | -2.4 | 1 | 11 | -0.1
CN(CC(=O)NCc1ccco1)CC(=O)Nc1c(Cl)cccc1Cl | 5 | -1.0% | -1.5 | 6 | -2 | 0.1
CC(C)(C)c1ccc(S(=O)(=O)N2CCCCC2)cc1 | -14 | 1.6% | -2.8 | 3 | 1 | 2.4
COc1cccc(CN2C(=O)C(C)Oc3ccccc32)c1 (stereo not drawn) | -5 | 1.9% | -5.3 | 6 | 1 | 3.0
